Screening results deposited in PubChem BioAssay by Vanderbilt University.
GIRK2 act: activators of human GIRK2 potassium channels. actives 0.05% (n = 63,000). calls only for hits at 25 µM. HEK293-GIRK2 thallium flux, Thallos fluorescence;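 active means among the strongest 0.2% of first-round signals and kept after retests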;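 further: first round at about 10 µM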
Target sequence (P48051 whole entry, looked up): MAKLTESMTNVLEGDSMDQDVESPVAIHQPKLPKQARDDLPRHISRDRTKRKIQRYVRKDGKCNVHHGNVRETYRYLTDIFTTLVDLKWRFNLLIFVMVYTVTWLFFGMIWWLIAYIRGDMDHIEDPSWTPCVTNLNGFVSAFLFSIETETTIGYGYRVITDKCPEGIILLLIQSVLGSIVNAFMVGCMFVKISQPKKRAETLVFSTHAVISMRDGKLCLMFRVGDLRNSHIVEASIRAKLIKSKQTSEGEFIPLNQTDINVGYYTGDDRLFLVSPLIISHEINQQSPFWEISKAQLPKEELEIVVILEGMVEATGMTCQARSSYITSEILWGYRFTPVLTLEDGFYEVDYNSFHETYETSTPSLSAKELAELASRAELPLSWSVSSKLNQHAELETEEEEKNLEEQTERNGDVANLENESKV
Calls only; i = inactive. These rows are one share of the data (hit frequency here may not be typical).

# | Molecule | GIRK2 act
1 | COc1cccc(Nc2n[nH]nc2C(=O)Nc2cc(Cl)ccc2C)c1 | i
2 | COc1cccc2cc(C(=O)C3=C(O)C(=O)N(CCN(C)C)C3c3ccccc3F)oc12 (centres undefined) | i
3 | COc1cccc(NC(=O)C2COCC(=O)N2Cc2cccs2)c1 (centres undefined) | i
4 | Cc1oc(-c2ccc(Cl)cc2)nc1CSc1nc2c(c(=O)[nH]1)CCC2 | i
5 | CONC(=O)c1nnn(-c2nc3c(s2)CCCC3)c1C | i
6 | Cn1c(-c2nc(C(=O)N3CCN(c4ccccn4)CC3)cs2)cc2ccccc21 | i
7 | Cn1cc(CC(=O)N2CCC(C(=O)Nc3nccs3)CC2)c2ccccc21 | i
8 | Cc1cccc(Cn2c(=O)c3c(nc4n(-c5ccccc5O)c(C)c(C)n34)n(C)c2=O)c1 | i
9 | COc1cc(S(=O)(=O)NCc2ccccn2)c(OC)cc1Cl | i
10 | O=C(Cc1ccc(F)cc1)N1CC(c2nc(-c3ccco3)no2)C1 | i
11 | Cc1ccc2nc3c(cc(C(=O)NCc4ccco4)n3Cc3ccccc3)c(=O)n2c1 | i
12 | O=C(Cn1c(=O)nc(-c2ccccc2F)c2cc(Cl)ccc21)Nc1ccccc1F | i
13 | O=C(CCC(=O)N1CCN(CCn2ccnc2-c2ccccc2)CC1)c1ccccc1 | i
14 | COc1cccc(C(=O)N2CCN(c3nc4ccc(OC(F)(F)F)cc4s3)CC2)c1OC | i
15 | CCOc1ccccc1Oc1coc2cc(OC(=O)c3ccco3)ccc2c1=O | i
16 | COC(=O)c1ccc(C2c3c(oc4ccc(Cl)cc4c3=O)C(=O)N2CCO)cc1 (centres undefined) | i
17 | O=C(Nc1ccccc1)OC1CCCC(NS(=O)(=O)/C=C/c2ccccc2)C1 (centres undefined) | i
18 | CN1CCC2(CC1)N=C(SCC(=O)Nc1cc(F)ccc1F)C(c1ccc(C(C)(C)C)cc1)=N2 | i
19 | O=C(CCCc1ccccc1)NCCCS(=O)(=O)N1CCN(c2ccccc2F)CC1 | i
20 | CSc1ncc(Cl)c(C(=O)N2CCc3ccccc32)n1 | i
21 | COc1ccccc1-c1c(C)oc2cc(OCC(=O)c3ccc(F)cc3)ccc2c1=O | i
22 | CCc1ccccc1NC(=O)c1nnn(-c2ccccc2)c1C1CC1 | i
23 | CCOc1ccc(NC(=O)Cc2cc(=O)[nH]c(SCc3ccccc3)n2)cc1 | i
24 | O=C(Nc1oc2ccccc2c(=O)c1-c1ccccc1)c1cccc([N+](=O)[O-])c1 | i
25 | CC(C)(C)c1ccc(C(=O)N2CCN(Cc3nc4ccccc4[nH]3)CC2)cc1 | i
26 | CCOC(=O)c1nn(-c2ccc(F)cc2)c(=O)cc1NC1CCCCC1 | i
27 | COc1ccccc1OCC#CCNC(=O)c1cc(-c2cccs2)[nH]n1 | i
28 | OCc1nc2ccccc2n1CCCOc1ccccc1Cl | i
29 | COc1ccccc1-n1ccnc(N)c1=O | i
30 | Cc1cc(S(=O)(=O)N2CCC(S(C)(=O)=O)CC2)c(Cl)cc1Cl | i

Arranged by number of heavy atoms (lowest first): some entries from above
# | Molecule | GIRK2 act
5 | CONC(=O)c1nnn(-c2nc3c(s2)CCCC3)c1C | i
23 | CCOc1ccc(NC(=O)Cc2cc(=O)[nH]c(SCc3ccccc3)n2)cc1 | i
24 | O=C(Nc1oc2ccccc2c(=O)c1-c1ccccc1)c1cccc([N+](=O)[O-])c1 | i

Returning to the listing, repeating the 7 entries before the break.
# | Molecule | GIRK2 act
24 | O=C(Nc1oc2ccccc2c(=O)c1-c1ccccc1)c1cccc([N+](=O)[O-])c1 | i
25 | CC(C)(C)c1ccc(C(=O)N2CCN(Cc3nc4ccccc4[nH]3)CC2)cc1 | i
26 | CCOC(=O)c1nn(-c2ccc(F)cc2)c(=O)cc1NC1CCCCC1 | i
27 | COc1ccccc1OCC#CCNC(=O)c1cc(-c2cccs2)[nH]n1 | i
28 | OCc1nc2ccccc2n1CCCOc1ccccc1Cl | i
29 | COc1ccccc1-n1ccnc(N)c1=O | i
30 | Cc1cc(S(=O)(=O)N2CCC(S(C)(=O)=O)CC2)c(Cl)cc1Cl | i
31 | CO[C@H]1/C=C/O[C@@]2(C)Oc3c(C)c(O)c4c(O)c(c(C=NN5CCN(C)CC5)c(O)c4c3C2=O)NC(=O)/C(C)=C\C=C\[C@H](C)[C@H](O)[C@@H](C)[C@@H](O)[C@@H](C)[C@H](OC(C)=O)[C@@H]1C | i
32 | CCCS(=O)(=O)N1CCCc2cc(NS(=O)(=O)/C=C/c3ccc(C)cc3)ccc21 | i
33 | CSc1ccc(CNC(=O)Cn2c(=O)c(N3CCCCC3)nc3ccccc32)cc1 | i
34 | O=C(NCc1ccc2c(c1)OCO2)C(=O)NCC1(c2ccc(F)cc2)CC1 | i
35 | COc1cccc(CNC(=O)c2cn(C)nn2)c1 | i
36 | Cc1nn(-c2ncc(NC(=O)c3c(F)cccc3F)cn2)c(C)c1C | i
37 | COc1cccc(Nc2nnc(Cc3ccc(C)cc3)c(=O)[nH]2)c1 | i
38 | O=C(NCc1cnn2ccccc12)c1ccc(-c2ccccc2)cc1 | i
39 | Cc1ccc(-c2noc(-c3ccc(=O)n(CC(=O)NCCCc4ccccc4)c3)n2)cc1 | i
40 | COc1ccc(Cl)cc1C(=O)Nc1cc(N2CCCCC2)ncn1 | i
41 | CN(CC(=O)NCc1cccs1)c1nc2ccccc2s1 | i
42 | O=C(NC1CCN(C(=O)c2cn(-c3ccc(F)cc3)nn2)CC1)c1ccncc1 | i
43 | C=C[C@](C)(O)CC[C@H]1C(C)=CC(=O)[C@H]2C(C)(C)CCC[C@]12C | i
44 | COc1ccc(NC(=O)Cn2cc(C(=O)c3ccc(C)cc3)c(=O)c3cc(F)ccc32)c(OC)c1 | i
45 | COc1ccc(OC)c(NC(=O)CCCSc2ccc(NC(=O)c3ccco3)nn2)c1 | i
46 | COc1cccc(N2CCN(C(=O)Cc3sc(C)nc3C)CC2)c1 | i
47 | O=C(CN1CCC(c2nnc(-c3ccco3)s2)CC1)Nc1cccc(Cl)c1Cl | i
48 | CC(C)Sc1ccc(CC(=O)NCc2ccsc2)cc1 | i
49 | COc1ccc(CNC(=O)N2CCN(c3nc4ccccc4n3C)CC2)cc1 | i
50 | CC(O)(CCc1ccccc1)CNC(=O)C(=O)NCCC1=CCCCC1 (centres undefined) | i
51 | O=C(CSC1CCCC1)NCCC(O)c1ccoc1 (centres undefined) | i
52 | Nc1c(C(=O)NC2CCCCC2)nnn1-c1cccc(Br)c1 | i
53 | CCc1ccc(NCCn2c(C)cn3c4c(=O)n(C)c(=O)n(C)c4nc23)cc1 | i
54 | Cn1c(=O)[nH]c(=O)c2c1ncn2CC(=O)NCc1ccccc1 | i
55 | COc1ccccc1OCC#CCNS(=O)(=O)c1cccc2cccnc12 | i
56 | O=C(NCCN1CCN(c2ccccc2F)CC1)c1ccsc1 | i
57 | O=C(CC1CCCC1)NCCCS(=O)(=O)N1CCN(c2ccc(F)cc2)CC1 | i
58 | O=C(NCC1CCN(C(=O)c2ccncc2)CC1)c1ccccn1 | i
59 | Cc1cncnc1N1CCN(S(=O)(=O)c2ccc3c(c2)OCCO3)CC1 | i
60 | O=C(NCc1nc2ccccc2[nH]1)c1cc(C2CC2)on1 | i
61 | Cc1[nH]c(=O)[nH]c(=O)c1CCc1nnc(SCC(=O)Nc2ccc(F)c(F)c2F)o1 | i
62 | Cc1nc2c(c(=O)n1CC(=O)Nc1cc(F)cc(F)c1)CN(Cc1ccccc1)CC2 | i
63 | COc1ccc(C)c2sc(N(CCCn3ccnc3)C(=O)COc3ccccc3)nc12 | i
64 | Cc1noc(C2CN(C(=O)Cn3c(=O)oc4ccccc43)C2)n1 | i
65 | N#Cc1c(NC(=O)C2CCN(S(=O)(=O)c3ccc(Cl)cc3)CC2)sc2c1CCC2 | i
66 | CCCCCCCCCCCCCCCCCCOC[C@@H](O)COP(=O)([O-])OCC[N+](C)(C)C | i
67 | COc1cc(O)c2c(c1O)O[C@@H](c1ccccc1O)CC2=O | i
68 | O=C(NCCC(O)c1cccc2ccccc12)c1ccc(Br)o1 (centres undefined) | i
69 | COc1ccc(CCNC(=O)NCCC(O)C2CC2)cc1 (centres undefined) | i
70 | COc1ccc(CCC(=O)N2CCC(Oc3nc4c(Cl)cccc4s3)CC2)cc1 | i
71 | COc1cc(/C=C/C(=O)N2CCCC(c3nnc(C(F)(F)F)o3)C2)cc(OC)c1OC (centres undefined) | i
72 | CC(C)NC(=O)CSc1nnc(N2CCN(C(=O)c3ccccc3F)CC2)s1 | i
73 | Cc1ccccc1CNC(=O)c1cn(C)nc1S(=O)(=O)N1CCN(c2ccccc2Cl)CC1 | i
74 | O=C(Nc1oc2ccc(Cl)cc2c(=O)c1-c1ccccc1)c1cccs1 | i
75 | O=C(Cc1noc2ccccc12)Nc1ccccc1-c1ccc(=O)[nH]n1 | i
76 | Cn1c(SCC(=O)NCCCc2ccccc2)nc2cc(-c3ccccc3)sc2c1=O | i
77 | Cc1cn2c3c(=O)n(C)c(=O)n(C)c3nc2n1CCN1CCN(c2cccc(Cl)c2)CC1 | i
78 | CCCCC[C@H](O)/C=C/[C@@H]1[C@H]2C/C(=C/CCCC(=O)O)O[C@H]2C[C@H]1O | i
79 | CC(C)OCC(=O)N1CCc2cc(S(=O)(=O)N3CCOCC3)ccc21 | i
80 | COc1ccc(OCc2noc(CNC(=O)c3cccs3)n2)cc1 | i
81 | COc1cccc(CNC(=O)CSc2n[nH]c(=O)c3cc(-c4ccco4)nn23)c1 | i
82 | CCn1c(SCC(=O)NCC2CCCO2)nnc1-c1c(C)nc2sccn12 (centres undefined) | i
83 | Cc1ccc(OCC(O)Cn2c(N(C)C)nc3c2c(=O)n(C)c(=O)n3C)cc1C (centres undefined) | i
84 | COc1ccc(C(=O)Nc2ccc(SCC(=O)N3CCCC3)nn2)c(OC)c1 | i
85 | C=CC(C)(C)OCC(O)CN1CCN(Cc2ccc3c(c2)OCO3)CC1 (centres undefined) | i
86 | COc1cccc2sc(N(C)CC(=O)NCCC3=CCCCC3)nc12 | i
87 | CC(=O)c1ccc(C(=O)N(CCCn2ccnc2)c2nc3c(C)cc(C)cc3s2)cc1 | i
88 | COc1ccc(-c2nc(-c3cn(Cc4ccc(C)cc4)nn3)no2)cc1 | i
89 | COc1ccc(C)cc1NC(=O)Cn1c(C)cc(C)c(S(=O)(=O)c2ccc(C)cc2)c1=O | i
90 | O=C1CC[C@@H](C(=O)N2CSC[C@H]2C(=O)O)N1 | i

Other compounds follow.
# | Molecule | GIRK2 act
91 | O=C(NCc1ccccc1Cl)C1CCN(c2ccc(-c3cccnc3)nn2)CC1 | i
92 | CCCNC(=O)CSC1=NS(=O)(=O)c2ccccc2N1 | i
93 | COc1ccc(CC(=O)Nc2ccc(-n3nnn(CC(=O)NCc4ccco4)c3=O)cc2)cc1OC | i
94 | CN(C)c1cccc(C(=O)N(Cc2ccoc2)Cc2cccs2)c1 | i
95 | COc1ccccc1CNC(=O)Cn1cccc(-c2nc(-c3ccc(F)cc3)no2)c1=O | i
96 | CCCn1c(=O)c2sccc2n2c(CCCC(=O)Nc3ccc(Oc4ccccc4)cc3)nnc12 | i
97 | COC(=O)c1ccc(C2NN(C)C3C(=O)NC(=O)C23)cc1 (centres undefined) | i
98 | Cc1nc(-c2ccccc2)sc1CNC(=O)c1ccccn1 | i
99 | CSCCC(C)(O)CNC(=O)C(=O)Nc1ccc(OC(F)(F)F)cc1 (centres undefined) | i
100 | Fc1cccc(COc2ccc(Nc3ncnc4sc(-c5ccco5)cc34)cc2Cl)c1 | i
101 | O=C(Nc1ccc2c(c1)OCCO2)C1COCC(=O)N1Cc1cccs1 (centres undefined) | i
102 | O=C(CCc1ccccc1)Nc1nc(CN2CCc3ccccc3C2)cs1 | i
103 | COc1ccccc1C(=O)N1CCN(c2oc(-c3ccccc3Cl)nc2C#N)CC1 | i
104 | CC(Cc1ccco1)NC(=O)Nc1ccc2c(c1)OCO2 (centres undefined) | i
105 | COc1ccccc1NC(=O)Cn1cc(S(=O)(=O)N2CCCCCC2)ccc1=O | i
106 | O=C(/C=C/c1ccccc1Cl)Nc1ccc(CC(=O)NCc2cccs2)cc1 | i
107 | COc1ccc(NC(=O)C(=O)NCc2cccs2)cc1OC | i
108 | COc1ccc(/C=C/C(=O)c2cc(OC)ccc2OC)c(OC)c1 | i
109 | COc1ccc(N(C)c2nnc(-c3ccc(NC(=O)c4ccc(F)cc4F)cc3)s2)cc1 | i
110 | Cc1nc(-c2ccccc2)sc1CNC(=O)c1ccc(Br)o1 | i
111 | CCOC(=O)C(=O)Nc1cc(C)nn1-c1nc(-c2cccc(OC)c2)cs1 | i
112 | COc1ccc(OC)c(CNC(=O)Cn2cnc3c([nH]c4ccc(C)cc43)c2=O)c1 | i
113 | O=S(=O)(c1cccn2cnnc12)N(Cc1ccc(F)cc1)c1ccc(F)cc1 | i
114 | Cc1cc(-c2ccccn2)cc(C)c1/C=C/c1cncc(-c2nn[nH]n2)c1 | i
115 | N#Cc1nc(-c2ccc(S(=O)(=O)N3CCCC3)cc2)oc1NCCc1ccccc1 | i
116 | COc1ccc(CN2COc3ccc4c(c3C2)O/C(=C\c2cccs2)C4=O)cc1OC | i
117 | Cc1c(OC(=O)N2CCOCC2)ccc2c(=O)c(-c3nc4ccccc4s3)coc12 | i
118 | O=C(O)c1cc(=O)c2cc(Br)ccc2o1 | i
119 | COc1ccc(CNC(=O)C(=O)NCCC2CCCCN2S(=O)(=O)c2ccccc2)cc1 (centres undefined) | i
120 | Cc1cccc(C)c1OCCOCC(O)CN1CCN(Cc2ccc3c(c2)OCO3)CC1 (centres undefined) | i
121 | O=C(/C=C/c1ccc(O)c(O)c1)OCCc1ccccc1 | i
122 | O=C(Nc1ccccn1)c1cccc(S(=O)(=O)N2CCOCC2)c1 | i
123 | COCCNC(=O)N1CCC(C(=O)NCC(F)(F)F)CC1 | i
124 | O=C(Nc1ccc2c(c1)OCCO2)c1n[nH]nc1Nc1ccc(F)cc1 | i
125 | Cc1cc(C(=O)c2ccccc2)ccc1OC(=O)C(C)(C)C | i
126 | Cc1c(OC(=O)C(C)(C)C)ccc2c(=O)c(-c3nc4ccccc4s3)coc12 | i
127 | COc1ccc(Cl)cc1C(=O)NCCNc1cc(Nc2ccccn2)ncn1 | i
128 | COc1ccc(NC(=O)c2cn(-c3cc(N(C)C)ncn3)cn2)cc1OC | i
129 | COc1ccc(S(=O)(=O)N2CCCOC2CNC(=O)C(=O)NCCO)cc1 (centres undefined) | i
